BRCT inh red: qHTS Assay for Inhibitors of BRCT-Phosphoprotein Interaction (Red Fluorophore). Breast cancer type 1 susceptibility protein (Homo sapiens), P38398. BRCT-phosphopeptide binding, red fluorescence polarization. Potency, µM (doses to about 76.9 µM), for the others: at the highest dose activity change, negative = inhibition, hits mostly inhibitors. 75,000 compounds, 0.03% hits. AID 892, 2007; also: % is scaled to controls: 0 for no effect and ±100 for the full control effect
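Fluorescence polarization: 100 nM His-tagged BRCA1 BRCT with 100 nM TAMRA-labelled phospho-BACH1 decapeptide, phosphate buffer pH 7.3 with 150 mM NaCl, DTT, 0.01% Tween 20; 12 min RT. Binding inhibition seen as FP decrease.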
USP2a inh: qHTS Assay for Inhibitors of Ubiquitin-specific Protease USP2a; Ubiquitin carboxyl-terminal hydrolase 2 (Homo sapiens), O75604; USP2a enzymatic assay, qHTS inhibition; Potency, µM (doses to about 38.3 µM), for inactives: at the highest dose activity change, negative = inhibition, most hits filed as inhibitors; 60,000 compounds, 0.1% hits;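 also: potency is read from the fitted curve at half-maximal effect; nearly all actives have a fitted effect of over 60% in size; plate controls were DMSO for no effect and NEM full inhibition control for full effect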
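20 nM USP2 core + cpd, 30 min RT; add 20 nM Ub-PLA2/20 uM NBD C6-HPC; read Ex460/Em535 at 0 h and 2.5 h. Normalized to NEM; qHTS curve fit/classification.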
A350 fluor: qHTS Assay for Spectroscopic Profiling in A350 Spectral Region | Compound autofluorescence, 340/450 nm, Alexa 350 dye-equivalents; active compounds read high | max dye-equivalent concentration, M | 59,000 compounds, 11% hits | AID 590, 2007; in the data active = max dye-equivalent concentration above about 10 nM; inconclusive = mostly about 1.1 nM to 9.6 nM
CRE Fsk mod: Cell signaling CRE-BLA (Fsk stim) | CHO CRE-bla reporter (cAMP response element driving beta-lactamase), forskolin EC10, beta-lactamase ratio | Potency, µM (highest dose often 38.2 µM), without a hit: top-dose activity change, negative = inhibition, hits mostly activators | 71,000 compounds, 2.5% hits; active = well fitted activation curve with a large enough effect in the signal ratio, with a control signal flat, not every such curve was filed as active; inconclusive = small, poorly fitted or top-dose-only effect, or effect the other way, or a change in a side signal; the % refers to the signal ratio; also: potency is read from the fitted curve at half-maximal effect; % of control where 0% means no effect
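The 460nm/530nm emission ratio after CCF4 loading defined %Activity, from which AC50 values were obtained. CRE-bla CHO cells received compound dilution series together with an EC10 level of NKH 477 for 3 hours at 37 degrees Celsius.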
Tau filament bind: qHTS Assay for Tau Filament Binding; Microtubule-associated protein tau (Homo sapiens), P10636; recombinant tau filaments, thioflavin S fluorescence, 15 h; filaments grown with octadecylsulfate alongside compound; Potency, µM (top dose mostly 57.1 µM), without a hit: top-dose activity change, negative = inhibition; 71,000 compounds, 2% hits; AID 596, 2007;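 also: potency is read from the fitted curve at half-maximal effect; % is scaled to controls: 0 for no effect and ±100 for the full control effect; actives lower thioflavin S fluorescence by blocking filaments or displacing dye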
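ThS-based fibril read: tau 1 uM final, inducer ODS 30 uM final, 37 C for 15 h, ex 450/em 510 nm.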
FLuc inh: qHTS Assay for Inhibitors of Firefly Luciferase | Luciferin 4-monooxygenase (Photinus pyralis), P08659 | AID 411, 2009 | Potency, µM (highest dose often 57.1 µM), for the others: at the highest dose activity change, negative = inhibition, actives largely listed as inhibitors | 72,000 compounds, 2.2% hits | purified firefly luciferase, luminescence, 8 min; also: potency is read from the fitted curve at half-maximal effect; % is scaled to controls: 0 for no effect and ±100 for the full control effect; nearly all actives have a fitted effect of over 40% in size
Target sequence (P08659 whole entry, looked up): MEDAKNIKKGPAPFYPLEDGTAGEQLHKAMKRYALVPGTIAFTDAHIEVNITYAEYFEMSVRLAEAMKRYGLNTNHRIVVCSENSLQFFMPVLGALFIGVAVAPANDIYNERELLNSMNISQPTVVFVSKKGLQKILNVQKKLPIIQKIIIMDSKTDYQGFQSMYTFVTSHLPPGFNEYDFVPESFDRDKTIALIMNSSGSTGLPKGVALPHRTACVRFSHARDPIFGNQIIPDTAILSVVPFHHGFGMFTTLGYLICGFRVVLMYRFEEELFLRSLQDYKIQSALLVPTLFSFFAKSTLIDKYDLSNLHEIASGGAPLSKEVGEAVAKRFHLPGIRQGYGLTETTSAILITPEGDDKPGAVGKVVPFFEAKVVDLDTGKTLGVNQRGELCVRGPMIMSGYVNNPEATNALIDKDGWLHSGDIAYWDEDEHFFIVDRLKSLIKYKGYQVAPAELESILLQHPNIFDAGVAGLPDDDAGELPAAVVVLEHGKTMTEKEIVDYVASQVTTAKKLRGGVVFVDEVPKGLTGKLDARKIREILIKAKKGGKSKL
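Substrate buffer containing 10 uM ATP (pH 7.2 imidazole, Mg2+, KCl, detergent, BSA) is dispensed, compound pinned in, then luciferase/luciferin detector mix added. After 8 min at ambient temperature, light output is measured.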
HEK293 cAMP cs: qHTS Assay for Agonists of the Thyroid Stimulating Hormone Receptor: Activators of Intracellular cAMP Concentrations in Parental HEK 293; parental HEK293 CNG cAMP sensor, membrane potential fluorescence; Potency, µM (titrated, usually from 57.1 µM), without a hit: at the highest dose activation, usual class: activators; 73,000 compounds, 2.5% hits; also: potency is read from the fitted curve at half-maximal effect; % of control where 0% means no effect; nearly all actives have a fitted effect of over 55% in size
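Counterscreen for endogenous-receptor signalling: CNG-channel HEK 293 cells report cAMP rise by membrane depolarization. After 60 min dye equilibration with 100 uM RO 20-1724, compounds incubated 30 min before bottom-read fluorescence at 590 nm.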
BRCT PPI green: qHTS Assay for Inhibitors of BRCT-Phosphoprotein Interaction (Green Fluorophore) | Breast cancer type 1 susceptibility protein (Homo sapiens), P38398 | BRCA1 BRCT-phosphopeptide binding, green fluorescence polarization | Potency, µM (highest dose often 76.9 µM), for the others: at the highest dose activity change, negative = inhibition, most hits filed as inhibitors | 75,000 compounds, 0.05% hits;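 also: potency is read from the fitted curve at half-maximal effect; plate controls were peptide without protein for full effect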
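Fluorescence polarization: His-tagged BRCT (~35 kDa BRCA1 C-terminus, 250 nM) bound to 100 nM fluorescein-labeled phosphorylated 10-aa BACH1 peptide, pH 7.3 phosphate buffer with DTT and Tween 20. Compounds incubated 12 min at room temperature; inhibition read as lowered polarization.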
ERK AVP inh: qHTS Assay for Inhibitors of the ERK Signaling Pathway using a Homogeneous Screening Assay | HEK293-V1b, vasopressin-stimulated pERK AlphaScreen | Potency, µM (top dose mostly 57.5 µM), for inactives: at the top dose activity, negative = inhibition, actives largely listed as inhibitors | 72,000 compounds, 0.99% hits; also: potency is read from the fitted curve at half-maximal effect; % is scaled to controls: 0 for no effect and ±100 for the full control effect; nearly all actives have a fitted effect of over 55% in size
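Phosphorylated ERK1/2 detected via AlphaScreen bead proximity in lysates of V1b-expressing HEK293 cells given 25 nM vasopressin for 5 min after 30 min compound exposure (37 °C). AC50 from Hill equation; basal DMSO 0%, vasopressin 100%.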
Active calls of the source: *; i = inactive; ? = inconclusive; / = not tested or not shown; [ ] = remark or other dose. Unless noted, calls follow the shape of the dose curve; as a rule, active = well fitted curve in the direction sought with a large enough effect; inconclusive = small, poorly fitted or top-dose-only effect, or another doubt; inactive = no such curve, though single readings can be large; an effect the other way counts as inactive or inconclusive. Some of the compounds tested, so the mix of outcomes need not match the whole.

SMILES	BRCT inh red	USP2a inh	A350 fluor	CRE Fsk mod	Tau filament bind	FLuc inh	HEK293 cAMP cs	BRCT PPI green	ERK AVP inh
CC1=C(C(=O)OCCOC(C)C)C(c2cccnc2)C2=C(CCCC2=O)N1 (stereo unspecified)	-0.4%	5.5%	/	?	11.2%	0.6%	9.9%	-2.1%	-6.5%
CSCCC(NC(C)=O)C(=O)Oc1ccc2c3c(c(=O)oc2c1)CCCC3 (stereo unspecified)	-0.2%	-3.8%[7.66 µM]	/	?	18.7%[11.4 µM]	-0.5%	-0.3%[11.4 µM]	2.3%	-2.7%
Cc1cc(N2CCOCC2)nc2cc(O)ccc12	-1.5%	/	/	?	18.0%	-23.4%	6.31µM*	-1.2%	/
COC(=O)c1cc(Br)ccc1-c1ccc(/C=N/n2nnnc2N)o1	-1.7%	23.8%[7.66 µM]	/	?	34.0%[11.4 µM]	1.0%	22.7%[11.4 µM]	0.0%	-23.3%
Cn1c2ccc(Cl)cc2c2nc3ccccc3nc21	-0.9%	/	/	?	383.4%	-4.8%	1.6%	-6.1%	9.2%
c1cc2c3c(cccc3c1)C(N1CCCCC1)=N2	-1.5%	25.5%[7.66 µM]	/	17.8%[7.6 µM]	197.5%[11.4 µM]	-10.7%	?	-3.0%	-6.0%
CC(=O)Nc1nc2n(n1)C(c1ccccc1)C=C(c1ccccc1)N2 (stereo unspecified)	1.3%	43.6%[activator]	/	?	i	0.7%	12.4%	-5.8%	-6.5%
O=C(Nc1sc2c(c1C(=O)NCC1CCCO1)CCCC2)c1cccs1 (stereo unspecified)	-0.8%	-11.6%[7.66 µM]	/	?	75.7%[11.4 µM]	-0.1%	?	2.8%	-2.4%
COC(=O)c1cc(-c2ccccc2)sc1NC(=O)c1cc(C)on1	-0.4%	/	/	/	/	/	14.1%	-2.6%	/
Cc1cc(N2CCC(N(C)C3CCCC3)CC2)nc2cc(O)ccc12	-4.2%	/	/	-5.4%	255.9%	-2.4%	22.9%	0.7%	/
CC(=O)N1CSCC1C(=O)N1CCN(c2ccc(N3CCOCC3)nn2)CC1 (stereo unspecified)	1.3%	/	/	6.0%	-1.5%	2.0%	-1.9%	-2.9%	-0.4%
CC(C)Cn1c(CN(C)Cc2ccccc2)nc2c1c(=O)n(C)c(=O)n2C	-2.0%	/	/	?	44.6%	-2.0%	4.9%	-2.9%	/
COC(=O)C1=CN(C2CC2)C=C(C(=O)OC)C1c1ccc(C(=O)OC)cc1	-0.1%	2.1%[7.66 µM]	/	?	112.0%[11.4 µM]	1.7%	?	-0.7%	9.9%
CN(C)CCNC(=O)c1ccc2c(c1)N(Cc1ccc(F)cc1)CCS2	-1.2%	/	/	-6.7%	-29.6%	-0.7%	-6.1%	-1.1%	-14.7%
Cc1cccn2c(=O)c3cc(C#N)c(=NC(=O)c4ccncc4)n(Cc4ccco4)c3nc12	-1.2%	/	/	/	/	/	-6.4%	-3.7%	/
O=C(O)CCCCC(=O)O	1.8%	/	/	3.0%	0.0%	/	-7.6%	-0.8%	-0.4%
CC(=O)c1ccc([N+](=O)[O-])cc1	-0.6%	/	/	-4.3%	3.5%	/	17.1%	-0.8%	38.5%[activator]
C=CCn1c(=N)c(C(=O)NCCCOC)cc2c(=O)n3cccc(C)c3nc21	0.3%	8.1%	/	12.6µM*	i	0.8%	2.3%	-2.4%	?
COC(=O)c1ccc2c(c1)N(C)CCS2	0.2%	/	/	10.1%	12.7%	0.9%	-4.0%	-4.7%	-22.1%
O=C(O)CCCC(=O)N1CCN(c2nc(-c3ccccc3)c3ccccc3n2)CC1	2.3%	/	/	?	27.4%	-2.8%	3.9%	4.2%	4.5%

Profiles, quoted from the list. Screens in order: BRCT inh red, USP2a inh, A350 fluor, CRE Fsk mod, Tau filament bind, FLuc inh, HEK293 cAMP cs, BRCT PPI green, ERK AVP inh
Profile of CC(C)Cn1c(CN(C)Cc2ccccc2)nc2c1c(=O)n(C)c(=O)n2C : -2.0%, /, /, ?, 44.6%, -2.0%, 4.9%, -2.9%, /
Profile of CC(=O)N1CSCC1C(=O)N1CCN(c2ccc(N3CCOCC3)nn2)CC1 (stereo unspecified) : 1.3%, /, /, 6.0%, -1.5%, 2.0%, -1.9%, -2.9%, -0.4%

Other records.
SMILES	BRCT inh red	USP2a inh	A350 fluor	CRE Fsk mod	Tau filament bind	FLuc inh	HEK293 cAMP cs	BRCT PPI green	ERK AVP inh
Cc1ccc(-c2nc3cnccn3c2Nc2ccccc2)o1	-0.8%	/	/	?	-14.4%	-20.2%	0.3%	-2.5%	/
COc1ccc(C2C(C#N)=C(N)N3C(=C2C#N)Sc2ccccc23)cc1 (stereo unspecified)	-0.3%	12.1%	/	0.7%	i	-9.4%	-1.1%	16.2%	6.5%
CCCCOc1ccccc1C1C(C(=O)OC)=CN(CC)C=C1C(=O)OC	0.3%	-5.6%[7.66 µM]	/	?	60.1%[11.4 µM]	-0.1%	?	-2.4%	/
COc1ccc(C2C(C(C)=O)=C(C)N=c3s/c(=C\c4cc(C)n(C)c4C)c(=O)n32)c(OC)c1 (stereo unspecified)	-1.9%	31.6%[activator]	/	-16.5%	i	-4.0%	-6.4%	57.0%[activator]	-9.4%
Nc1ccccc1N	0.6%	/	/	?	252.9%	/	-14.7%	-5.4%	-8.2%
CC[C@@]1(O)C(=O)COc2c1cc1n(c2=O)Cc2c-1nc1cccc(C(C)C)c1c2[Si](C)(C)C	-0.3%	/	/	12.6µM*	-23.8%	/	29.6%	-2.4%	-0.7%
O=C(O)Cc1cccc2ccccc12	0.9%	/	/	-10.0%	4.4%	/	29.0%	-2.5%	15.8%
COC(=O)[C@@]1(Cc2ccc(F)cc2)[C@H]2c3cc(C(=O)N(C)C)n(CCN4CCOCC4)c3C[C@H]2CN1C(=O)c1ccccc1	-1.6%	/	/	?	4.4%	/	?	-0.1%	-12.4%
CCOC(=O)c1ccc(OC(=O)CCCCCN=C(N)N)cc1	-0.7%	-10.1%[17.1 µM]	i	-12.3%	-21.2%	0.3%	13.2%	0.1%	-1.3%
COC(=O)C1=CN(C)C=C(C(=O)OC)C1c1ccsc1	-0.5%	13.2%[7.66 µM]	/	?	10.4%[11.4 µM]	1.6%	10.0%[11.4 µM]	-2.7%	1.5%
Nc1cc(C(=O)O)c(O)c(S(=O)(=O)O)c1	-6.5%	/	/	-12.8%	9.5%	/	11.1%	-0.6%	14.1%
O=c1[nH]c2ccc(Cl)cc2c(-c2ccccc2)c1N1CCOCC1	-1.1%	/	/	?	138.6%	-0.4%	1.5%	-1.4%	/
CC(C)N(C(=O)Nc1ccc2nccnc2c1)C(C)C	-1.8%	/	/	/	/	/	17.8%[11.4 µM]	-1.9%	/
CC(=O)C1=C(C)NC(SCC(=O)c2cc(Cl)ccc2Cl)=C(C#N)C1c1ccco1 (stereo unspecified)	1.1%	9.5%	/	?	91.7%	-3.5%	-4.9%	5.5%	32.0%[activator]
COc1cc2c(cc1OC)CN(Cc1cccs1)CC2	0.4%	-2.5%[7.66 µM]	/	?	-12.2%[11.4 µM]	1.5%	11.8%[11.4 µM]	0.6%	-27.5%
CCCCNC(=O)c1ccc2nc(-c3ccco3)c(-c3ccco3)nc2c1	-10.8%	/	/	?	?	-19.5%	16.6%	-4.2%	-28.6%
CC(=O)C1=C(C)NC(SCC(=O)c2ccc(Cl)cc2)=C(C#N)C1c1ccco1 (stereo unspecified)	2.2%	/	/	?	167.4%	-7.9%	1.2%	9.2%	-11.1%
CC(=O)Oc1ccc2cc(-c3nc4ccccc4n3C)c(=O)oc2c1	-0.2%	5.7%	/	?	i	2.7%	-5.3%	-6.6%	-3.8%
CCOc1ccc2nc3ccc4[nH]onc4c3c2c1	-1.8%	3.3%	/	?	i	0.8%	-16.6%	-4.9%	23.3%
COCc1cc(C)nc2sc(C(=O)Nc3nccs3)c(N)c12	0.4%	/	/	?	193.2%	-13.0%	29.5%	0.7%	/
COc1cc(OC)c2c(=O)c(O)c(-c3ccc(OC)c(OC)c3)oc2c1	2.3%	3.9%	/	/	/	/	/	1.0%	-21.5%
COc1ccc(C2C=C(c3ccc(C)c(C)c3)Nc3ncnn32)c(OC)c1OC (stereo unspecified)	-1.3%	/	/	?	123.8%	-1.5%	20.0%	12.6%	?
CCC(=O)Nc1c(OC(=O)CC)ccc2c(C)cc(=O)oc12	0.3%	/	/	?	11.1%	-2.4%	9.7%	-1.0%	20.2%
O=C1C2CC=C(Cl)CC2C(=O)N1CC1Cc2ccccc2CO1 (stereo unspecified)	0.3%	/	/	6.3%	223.1%	1.7%	11.4%	-4.6%	-2.2%
CCCCn1nc(NC(=O)c2cccs2)c2cc3ccccc3nc21	0.8%	/	/	/	/	/	9.8%	2.0%	/
CCOC(=O)c1cc2c(=O)n3cc(C)ccc3nc2n(Cc2cccnc2)c1=N	0.3%	0.0%	/	8.1%	50.0%	-0.1%	-8.9%	0.3%	-27.9%

Assay outcomes deposited in PubChem BioAssay by National Center for Advancing Translational Sciences (NCATS).
